PINK1 expr mod: changes PINK1 expression | Potency, µM (doses to about 76.6 µM), without a hit: top-dose activation (PINK1 increase), most hits filed as activators | 410,000 tested, 0.2% active | PINK1 immunofluorescence, high-content cytometry, 24 h; active = well fitted activation curve with a large enough effect; inconclusive = small, poorly fitted or top-dose-only effect; inactive = flat fitted curve, though single readings scatter; cell line not stated here;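 further: % of control where 0% means no effect; nearly all actives have a fitted effect of over 65% in size; a mitochondrial uncoupler was the plate control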
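Readout is PINK1 immunofluorescence, quantified alongside mitochondrial, cell and nuclear markers by laser-scanning microplate cytometry. Cells from a stable line were exposed to compound titrations (5 concentrations) for 24 hours, with CCCP controls.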
* = called active by the depositor; ? = inconclusive. Potency means the concentration at half of the fitted maximal effect.

nr | Structure | PINK1 expr mod
1 | CCC(=O)N1CCc2cc(Br)cc(S(=O)(=O)CCC(=O)Nc3cccc(CC)c3)c21 | 0.3%
2 | CCn1c(=O)c2cc(C(=O)NCCCN3CCC(C)CC3)sc2c2ccccc21 | 11%
3 | Clc1cccc(N2CCN(c3c4c(nc5nncn35)CCC4)CC2)c1 | 0.0%
4 | CC(C)(C)C(=O)Nc1ccc2nc(SCC(=O)N3CCOCC3)sc2c1 | 0.5%
5 | CCOc1ccc(CNC(=O)C2Cc3cc(S(=O)(=O)N4CCCCCC4)ccc3N2C(C)=O)cc1 (stereo unspecified) | 2.3%
6 | Cc1cc(S(=O)(=O)N2CCN(Cc3noc(CCC(=O)N4CCCCC4)n3)CC2)ccc1F | 0.9%
7 | CCN(CC)S(=O)(=O)c1ccc2c(c1)N(CC(=O)Nc1c(C)cccc1C)C(=O)C1CCCN21 (stereo unspecified) | 0.7%
8 | COC(=O)c1ccccc1NC(=O)Cn1nnc2sc(-c3ccccc3)cc2c1=O | 16%
9 | COc1cccc(C(=O)N2CCc3c([nH]c4ccccc34)C2c2ccc(SC)cc2)c1 (stereo unspecified) | 1.5%
10 | Cc1cccc(C(c2sc3nc(-c4ccco4)nn3c2O)N2CCN(c3ccccc3)CC2)c1 (stereo unspecified) | 0.1%
11 | OCCN1CCN(Cc2ccc3c(c2)CN(Cc2cccn2-c2ccccn2)CCO3)CC1 | -0.5%
12 | Cc1ccc(C(C)C)c(OCCSc2nc3ccccc3n2CC(O)CO)c1 (stereo unspecified) | -0.3%
13 | Cc1ccc(-c2nn3c(-c4ccccc4C)nnc3c3ccccc23)cc1 | -0.6%
14 | CCCCCn1c(=O)[nH]c2cc(C(=O)N3CCN(c4cccc(C(F)(F)F)c4)CC3)ccc2c1=O | 3.6%
15 | Cc1cc(C(=O)NCc2ccccc2Cl)c2c(C)nn(-c3cccc(F)c3)c2n1 | -0.2%
16 | COc1ccc(C2CC(=O)N3CN(C4CCCCC4)CSC3=C2C#N)c(OC)c1 (stereo unspecified) | -1.2%
17 | COc1ccccc1-c1c(C(F)(F)F)oc2c(CN3CCCCC3C)c(O)ccc2c1=O (stereo unspecified) | -1.1%
18 | CC(C)c1ccc(NC(=O)CSC2=Nc3ccccc3C3=NC(CC(=O)NC4CCCCC4)C(=O)N23)cc1 (stereo unspecified) | 0.5%
19 | CCOc1cc(-c2ccc(OC(=O)c3ccc(Cl)cc3)c(OC)c2)cc(=O)c2c(C)oc(C)c12 | 1.8%
20 | COCCNC(=O)Cn1cc(S(=O)(=O)Cc2ccccc2Cl)c2ccccc21 | 0.6%
21 | O=S(=O)(Nc1ccc(C(F)(F)F)cc1)c1ccc2c(c1)OCCO2 | 5.2%
22 | COc1ccc(OC)c(CNC(=O)Cc2ccc(NC(=O)N3CCCCc4ccccc43)cc2)c1 | 0.0%
23 | Cc1oc2ccc(O)c(CN(C)Cc3ccccc3)c2c1C(=O)Nc1ccccc1 | 4.0%
24 | CCOC(=O)N1CCc2c(sc(NCc3sccc3C)c2C(=O)Nc2cc(Cl)ccc2OC)C1 | 0.1%
25 | COc1ccccc1N1CCN(C(=O)c2cc3c(=O)n(Cc4ccco4)ccc3nc2C)CC1 | 0.9%
26 | Cc1cccc(OCc2cc(=O)n3c4c(sc3n2)CCCC4)c1C | 0.3%
27 | CCc1c(C)sc2c1CCN(Cc1ccc(F)cc1)C2c1ccccc1 (stereo unspecified) | 0.1%
28 | COc1ccc2c(c1)c(=O)c(S(=O)(=O)c1ccc(F)cc1)cn2Cc1ccccc1Cl | 0.0%
29 | CN(C)CCNC(=O)CN1N=C(c2ccccc2)CCC1=O | 3.4%
30 | CC(=O)c1ccc(N2CCN(C(=O)c3cn(C)c(=O)c4c3c3ccccc3n4C)CC2)cc1 | 4.0%

Continued; it opens with the six that closed the last part.
nr | Structure | PINK1 expr mod
25 | COc1ccccc1N1CCN(C(=O)c2cc3c(=O)n(Cc4ccco4)ccc3nc2C)CC1 | 0.9%
26 | Cc1cccc(OCc2cc(=O)n3c4c(sc3n2)CCCC4)c1C | 0.3%
27 | CCc1c(C)sc2c1CCN(Cc1ccc(F)cc1)C2c1ccccc1 (stereo unspecified) | 0.1%
28 | COc1ccc2c(c1)c(=O)c(S(=O)(=O)c1ccc(F)cc1)cn2Cc1ccccc1Cl | 0.0%
29 | CN(C)CCNC(=O)CN1N=C(c2ccccc2)CCC1=O | 3.4%
30 | CC(=O)c1ccc(N2CCN(C(=O)c3cn(C)c(=O)c4c3c3ccccc3n4C)CC2)cc1 | 4.0%
31 | COc1ccc(C)cc1NC(=O)CSc1nc(=O)n(Cc2ccccn2)c2c1CCC2 | 0.2%
32 | Oc1c(C(c2ccccc2)N2CCC(O)CC2)sc2nc(-c3ccco3)nn12 (stereo unspecified) | 0.2%
33 | N#Cc1ccccc1NC(=O)CSc1nc(-c2ccccc2)cc(C(F)(F)F)c1C#N | 9.9%
34 | COc1cc(Cl)c(NS(=O)(=O)c2ccc(-c3coc(C)n3)cc2)c(OC)c1 | 1.7%
35 | Cc1cccc2sc(N3CCN(C(=O)CS(=O)(=O)c4ccc(F)cc4)CC3)nc12 | 2.6%
36 | COc1ccccc1-c1cc(C(F)(F)F)nc(S(=O)(=O)CCCC(=O)Nc2ccc(F)c(Cl)c2)n1 | -0.8%
37 | CCOc1ccc(N2CC(c3nc4ccccc4n3CCCOc3ccc(OC)cc3)CC2=O)cc1 (stereo unspecified) | -1.2%
38 | CCn1c(=O)c2cc(C(=O)N(C)c3cc(Cl)c(OC)cc3OC)sc2c2ccccc21 | 1.0%
39 | Cc1ccc(C)c(NC(=O)NCc2ccc3c(c2)CCN3C(=O)c2ccccc2)c1 | ?
40 | Cc1ccc(Cl)cc1-n1nnc(-c2nsc(NC(=O)c3ccccc3Cl)n2)c1C | 0.0%
41 | CN(CCN(C)c1nc(-c2cccs2)nc2ccccc12)C(=O)OC(C)(C)C | 3.4%
42 | COC(=O)CN1C(=O)CSc2ccc(S(=O)(=O)Nc3ccccc3)cc21 | -0.4%
43 | CC(=O)N1CCc2c(sc3c2c(=O)n(Cc2ccccc2)c(=O)n3CC(=O)Nc2ccc(C)c(F)c2)C1 | -0.6%
44 | Cn1c(C(=O)NCc2ccc(F)cc2)cc2cc(S(=O)(=O)N3CCCCC3)ccc21 | 0.6%
45 | Cc1nc(-c2ccc(S(=O)(=O)NCc3ccc(OC(C)C)cc3)cc2)co1 | -4.0%
46 | COc1ccc(N(Cc2cccs2)C(=O)Nc2cccc(Cl)c2)cc1 | 2.1%
47 | COc1ccc(C2CC(=O)Nc3cc4c(cc32)OCO4)c(OC)c1 (stereo unspecified) | 4.6%
48 | COCC(=O)Nc1cc(C(=O)N2CCCC(C(N)=O)C2)cc2nc(-c3ccccc3)n(C)c12 (stereo unspecified) | -0.2%
49 | Cc1nc(N2CCCC2)ncc1C(=O)N1CCN(c2ccccc2F)CC1 | 1.5%
50 | CC(C)N(C(=O)Cn1cc(S(=O)(=O)Cc2ccc(Br)cc2)c2ccccc21)C(C)C | 6.1%
51 | COc1ccc(S(=O)(=O)Nc2cccc(-c3ccc(N4CCCC4)nn3)c2)cc1F | -0.1%
52 | Cn1cnc(S(=O)(=O)N2CCCC(C(=O)Nc3ccc(OC(F)(F)F)cc3)C2)c1 (stereo unspecified) | -0.8%
53 | O=C(Cn1nnc2sc(-c3ccccc3)cc2c1=O)Nc1cccc(C(F)(F)F)c1 | 2.4%
54 | Cc1ccc(NC(=O)Cn2c(=O)n(Cc3ccccc3)c(=O)c3c(C)c(C(=O)N(C)C)sc32)c(C)c1 | 0.5%
55 | CCOc1ccccc1NC(=O)CN1C(=O)C2(SCC(=O)N2c2cccc(F)c2)c2ccccc21 (stereo unspecified) | -4.3%
56 | Cc1ccc(Nc2c(-c3ccc(C)s3)nc3ncccn23)cc1 | -1.9%
57 | CCc1cccc(C)c1NC(=O)Cn1cnc2c1c(=O)n(C)c(=O)n2C | -0.7%
58 | Cc1nn(CC(=O)NC(C)c2ccccc2)c(=O)c2cc3occc3n12 (stereo unspecified) | -0.6%
59 | Cc1cc(-n2ccnc(NCCc3ccc(S(N)(=O)=O)cc3)c2=O)ccc1Br | 0.1%
60 | COc1ccc(N2CCN(C(=O)CSc3n[nH]c(-c4ccccc4)n3)CC2)cc1 | 2.0%
61 | CCN1C(=O)C2(c3ccccc31)c1c(oc3ccccc3c1=O)C(=O)N2CCOC (stereo unspecified) | 0.8%
62 | Cc1ccc(C2c3[nH]c4ccccc4c3CCN2C(=O)CCc2ccccc2)cc1 (stereo unspecified) | 0.0%
63 | COc1cc(NC(=O)N2CCN(c3cc(-c4noc(C)n4)ccc3C)CC2)cc(OC)c1OC | -4.6%
64 | O=C(COc1ccccc1F)Nc1ccc(Cl)c(-c2nc3ccccc3[nH]2)c1 | 0.6%
65 | CCOc1ccc(NC(=O)N(Cc2c[nH]c3ccccc23)C2CCCCC2)cc1 | 0.9%
66 | COc1ccccc1CNC(=O)CCC1N=C2c3ccccc3N=C(SCC(=O)Nc3ccc(F)cc3)N2C1=O (stereo unspecified) | 1.0%
67 | O=S1(=O)c2ccccc2N(Cc2cccc(F)c2)c2ccccc21 | 1.3%
68 | CCNC(=O)CC1C(=O)N(c2ccc(F)cc2)C(=O)N1CCOC (stereo unspecified) | 2.6%
69 | CCc1cccc(NC(=O)Cn2ccn3nc(-c4ccc(OC)c(OC)c4)cc3c2=O)c1 | -0.3%
70 | COc1ccc(CCNCc2c(C(=O)O)c(C)n(Cc3ccccc3C)c2C)c(OC)c1 | -1.0%
71 | CCc1cccc(C)c1NS(=O)(=O)c1cc2[nH]c(=O)c(=O)[nH]c2cc1C | 1.3%
72 | CCCCNC(=O)c1cc(-c2ccc(Cl)c(Cl)c2)on1 | 2.9%
73 | COCCn1ccc2c(OCC(=O)Nc3c(C)cc(C)cc3C)cccc2c1=O | 1.9%
74 | CCc1nc(CN2CCOc3ccc(C(O)C4CCCCC4)cc3C2)c(C)[nH]1 (stereo unspecified) | 1.9%
75 | CCOC(=O)COc1ccccc1C1C(C(=O)OC)=C(C)NC2=C1C(=O)c1ccccc12 (stereo unspecified) | 6.0%
76 | COc1ccc(CCNC(=O)C2CCN(S(=O)(=O)c3c(C)noc3/C=C/c3ccc(C)cc3)CC2)cc1OC | 0.3%
77 | COc1cccc(CN2C(=O)NC(C)(C3CCN(Cc4cc(Cl)ccc4O)CC3)C2=O)c1OC (stereo unspecified) | -1.2%
78 | CCCSc1nc(=O)c2c(n1C)NC(=O)CC2c1cccc(F)c1F (stereo unspecified) | 1.1%
79 | CCCCOc1ccc(S(=O)(=O)Nc2ccc(-c3ccc(N4CCCCCC4)nn3)cc2)cc1 | 0.1%
80 | COc1cccc(C(=O)Nc2ccc3nc(SCCOc4ccccc4)sc3c2)c1 | 7.1%
81 | Cc1noc(C)c1S(=O)(=O)Nc1ccc(C(=O)Nc2ccc(Br)cc2)cc1 | 3.0%
82 | COc1ccccc1NC(=O)c1c(C)cc(C)nc1SCC(=O)Nc1ccc(C)cc1 | -1.1%
83 | CCc1ccc(C(=O)c2cn(CC(=O)Nc3ccc4c(c3)OCCO4)c3ccc(CC)cc3c2=O)cc1 | 2.5%
84 | CC(C)NC(=O)Nc1ccc2c(c1)N(C)C(=O)c1ccccc1S2 | -0.4%
85 | Nc1c(C(=O)Nc2ccc(F)cc2)sc2nc(-c3cccs3)cc(C(F)(F)F)c12 | ?
86 | COc1ccc(-n2ncc3c(NC4CCCC4)ncnc32)cc1 | 0.6%
87 | O=C(Nc1nc2c(F)cccc2s1)c1ccc(S(=O)(=O)N2CCCc3ccccc32)cc1 | 12%
88 | O=S(=O)(NCCc1nnc2ccc(SCc3c(F)cccc3Cl)nn12)c1ccccc1 | -0.7%
89 | COCCN1C(=O)c2[nH]nc(-c3c(C)cc(C)cc3O)c2C1c1cccc(O)c1 (stereo unspecified) | 4.8%
90 | CCOc1ccc(CCNC(c2cccc(Cl)c2)c2nnc(-c3ccccc3)o2)cc1OCC (stereo unspecified) | 3.3%

Entries from the list above that have bromine:
nr | Structure | PINK1 expr mod
1 | CCC(=O)N1CCc2cc(Br)cc(S(=O)(=O)CCC(=O)Nc3cccc(CC)c3)c21 | 0.3%
50 | CC(C)N(C(=O)Cn1cc(S(=O)(=O)Cc2ccc(Br)cc2)c2ccccc21)C(C)C | 6.1%
59 | Cc1cc(-n2ccnc(NCCc3ccc(S(N)(=O)=O)cc3)c2=O)ccc1Br | 0.1%
81 | Cc1noc(C)c1S(=O)(=O)Nc1ccc(C(=O)Nc2ccc(Br)cc2)cc1 | 3.0%

(next part)
nr | Structure | PINK1 expr mod
91 | O=S(=O)(Nc1ccc(-c2ccc(N3CCCC3)nn2)cc1)c1ccc(Br)cc1 | 2.7%
92 | COc1ccc(N2CCN(Cc3nc(-c4ccc(C)cc4)no3)CC2)cc1 | -0.3%
93 | Cc1ccc(CNc2nc3ccc(C)cc3n3nnnc23)cc1 | 2.2%
94 | CCOc1cc(CNC(=O)c2cc(-c3ccccc3)n[nH]2)cc(OCC)c1OCC | 1.4%
95 | Cc1ccc2c(CC(=O)Nc3cc(C(F)(F)F)ccc3Cl)coc2c1C | 1.9%
96 | Cc1ccc(S(=O)(=O)N(CC(=O)NCCc2ccc(Cl)cc2)c2ccccc2C)cc1 | 2.9%
97 | COCc1c(Br)c(C)nc2sc3c(=O)n(-c4cccc(Br)c4)nnc3c12 | -0.5%
98 | O=C(Nc1ccc2c(c1)OCO2)c1cc(-c2cccc(Cl)c2)on1 | 3.0%
99 | COc1ccc(-c2cc3nc(C)c(CCC(=O)Nc4ccc(F)cc4F)c(C)n3n2)c(OC)c1 | 5.3%
100 | Cc1ccc(NC(=O)Cn2nc(-c3ccc(Cl)cc3)c3ccccc3c2=O)cc1 | 2.5%
101 | Cc1cc(NC(=O)n2ncc3c(C)cccc32)ccc1Br | 1.9%
102 | CCCC[n+]1c(/C=C/c2ccc(N(C)C)cc2)sc2ccccc21 | 5µM*
103 | CC(C)OCCCNC(=O)CCCn1c(=O)[nH]c2ccsc2c1=O | 0.0%

These rows are one share of the data (hit frequency here may not be typical).
